# Bioassay records as filed in PubChem BioAssay.
# S aureus helic: S. aureus DNA helicase inhibition. purified S. aureus helicase, fluorescence unwinding assay; about half of the hits fall short of the stated cut. inhibition, %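 (tested at about 80 µM)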. 120,000 compounds, 0.05% hits;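 active means both duplicates at 50% or more, or one of them with a favoured structure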;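 further: 0% = mean of negative control wells and 100% = mean of positive control wells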
# MgrA-DNA mod: alters Staphylococcus aureus MgrA binding to DNA; inhibition, %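 (about 10 µg/mL by stock and volumes)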; AID 602314; 84,000 compounds, 0.13% hits; fluorescence polarization;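 active means above 50% in either of two replicates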;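 further: 0% = protein plus DNA without compound and 100% = DNA alone without protein; higher means less MgrA bound to DNA so lower polarization; one replicate is shown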
# * hit, by the source's call; . = no result given.
SMILES,S aureus helic,MgrA-DNA mod
COc1ccc(-c2cc(C)no2)cc1S(=O)(=O)NCCN1CCN(c2ccccc2)CC1,5,.
COC(=O)C1=C(Nc2ccc(O)cc2)CSC1,.,0.2
CSc1nnc(-c2ccc(S(=O)(=O)n3nc(C)cc3C)s2)n1C,.,0.9
CCNc1nc(NCC)nc(OCCOC(C)=O)n1,10,0.8
N#Cc1ccc(-c2ccncc2)nc1SCC(N)=O,1,6.1
COc1ccc(-c2cc(-c3ccccc3)c(C#N)c(SC3CCCCC3O)n2)cc1 (stereo unspecified),-1,5.0
C=CCNC(=O)CCn1c(=S)[nH]c2cc3c(cc2c1=O)OCO3,-1,-2.0
CC1CN(c2nnc(-c3ccccc3)c3ccccc23)CC(C)O1 (stereo unspecified),-6,1.1
Cc1ccccc1C1C(/C=c2/sc3nc4ccccc4n3c2=O)=C(c2cccs2)Oc2ccccc21 (stereo unspecified),.,-9.7
CCOc1ccc2c(c1)C(C)=CC(C)(C)N2C(=O)Cn1cnc2c1c(=O)n(C)c(=O)n2C,-1,.
CCc1ccc(NC(=O)N2CCC(c3ccccc3)C2)cc1 (stereo unspecified),7,0.8
COc1cccc(NCc2nnc(SCC(=O)c3ccc(Cl)s3)n2C2CCCCC2)c1,-5,.
CC1CN(C(=O)COc2ccccc2)CC(C)O1 (stereo unspecified),-10,.
Cc1cc(C(=O)CN(C)c2ccccc2)c(C)n1-c1c(C)n(C)n(-c2ccccc2)c1=O,2,.
COc1cccc(CN2CCC(C(=O)N3CCCC(C)C3)CC2)c1 (stereo unspecified),-6,-3.2
COc1ccc(S(=O)(=O)NCc2cccs2)cc1C(C)(C)C,6,-1.4
CSC(=NCCc1ccc(Cl)cc1)NC(=O)c1c(Cl)cccc1Cl,.,-0.4
C=CCN(C(=O)Cn1nc(Cc2cccnc2)c2ccccc2c1=O)c1ccccc1,5,.
O=S(=O)(c1ccc(Cl)cc1)N1CCN(Cn2nnc(-c3ccccc3)n2)CC1,-12,.
Cc1ccc(N(C)C(=O)C2CCCN2S(=O)(=O)c2cccc3nsnc23)cc1 (stereo unspecified),1,.
O=C(O)c1ccc(NC(=O)C2CC(=O)N(CCc3ccccc3)C(=Nc3ccc(F)cc3)S2)cc1 (stereo unspecified),.,2.9
Oc1ccc2ccccc2c1C=NCc1cn2ccsc2n1,-22,4.7
CCN(CC)S(=O)(=O)c1ccc(N2CCN(c3ccccc3F)CC2)nc1,-11,.
Cc1cn2c(nc1=O)OC1CC2OC1CO (stereo unspecified),-13,0.3
O=C(COc1ccccc1)Nc1nonc1NC(=O)COc1ccccc1,8,-0.1
# Further results follow.
SMILES,S aureus helic,MgrA-DNA mod
O=C(Nc1cccnc1)C1CC(c2ccc(F)cc2)=NO1 (stereo unspecified),-1,-2.0
O=C(COc1ccc2c(C(F)(F)F)cc(=O)oc2c1)N1CCc2ccccc21,-20,-0.9
O=C(NCc1n[nH]c(=O)c2ccccc12)NC1CCCCC1,12,.
COCc1snnc1C(=O)OC,.,-2.0
Cc1nnc(SCC(=O)N/N=C/c2cccc3cccnc23)n1-c1ccccc1,1,7.0
CCCCNC(=O)c1sc2nc3n(c(=O)c2c1C)CCC3,9,.
COC(=O)C1CSCN1 (stereo unspecified),18,-0.2
CC[C@H](CO)NCCN[C@H](CC)CO,.,2.4
CCC(CC)(C(=O)O)C(=O)O,13,.
O=C(CCCn1c(=O)c2sccc2n(Cc2ccc(F)cc2)c1=O)NCc1ccc2c(c1)OCO2,7,-0.1
COc1ccccc1/C=C(\C#N)c1ccc(C)cc1,.,3.8
CSc1nnc2c(n1)OC(C)(C)Nc1ccccc1-2,.,-7.8
Cc1cc(NC(=O)c2ccc(C#N)cc2)n(-c2ccccn2)n1,7,-2.6
Oc1cccnc1CCc1ccccc1,-3,-0.4
Cc1cc(C)c(C)c(S(=O)(=O)Nc2ccccc2C(=O)NCC(=O)NCc2ccco2)c1C,4,.
CN(C)C(CNC1CC2CC1C1CCCC21)c1ccco1 (stereo unspecified),19,.
COc1cc(N)n(S(=O)(=O)c2ccc(C)cc2)n1,-12,.
O=C(CCn1cnc2onc(-c3ccc(F)cc3)c2c1=O)NCc1cccc(Cl)c1,17,.
CC(C)(C)C1CCC(OC(=O)c2ccco2)CC1 (stereo unspecified),13,-2.3
Cc1[nH]c2ccccc2c1C(Nc1ccccn1)c1cccs1 (stereo unspecified),1,.
CCCc1nc2nc(C)c(N)c(=O)n2[nH]1,-24,.
CCCNC(=O)c1c(O)c2ccccc2n(C)c1=O,4,18
O=C(NCc1ccccn1)c1nnc(-c2cccnc2)o1,7,0.6
OC(COCc1ccccc1)CN1CCCC1 (stereo unspecified),-2,2.6
O=C(C1CC1)N1c2ccccc2CCc2ccccc21,1,-1.2

# Taken from above.
# Value for CC(C)(C)C1CCC(OC(=O)c2ccco2)CC1 (stereo unspecified) under S aureus helic: 13
# Value for O=C(NCc1n[nH]c(=O)c2ccccc12)NC1CCCCC1 under S aureus helic: 12
# Value for Cc1nnc(SCC(=O)N/N=C/c2cccc3cccnc23)n1-c1ccccc1 under MgrA-DNA mod: 7.0
# Value for Cc1[nH]c2ccccc2c1C(Nc1ccccn1)c1cccs1 (stereo unspecified) under S aureus helic: 1

# In the list so far, 4 have a Cl atom:
SMILES,S aureus helic,MgrA-DNA mod
COc1cccc(NCc2nnc(SCC(=O)c3ccc(Cl)s3)n2C2CCCCC2)c1,-5,.
CSC(=NCCc1ccc(Cl)cc1)NC(=O)c1c(Cl)cccc1Cl,.,-0.4
O=S(=O)(c1ccc(Cl)cc1)N1CCN(Cn2nnc(-c3ccccc3)n2)CC1,-12,.
O=C(CCn1cnc2onc(-c3ccc(F)cc3)c2c1=O)NCc1cccc(Cl)c1,17,.

# Following part.
SMILES,S aureus helic,MgrA-DNA mod
COC(=O)c1sccc1NC(=O)c1ccc2ncccc2c1,.,-2.8
CCC1CCC2(CC1)SCC(=O)N2c1ccccc1 (stereo unspecified),11,-2.0
CSc1nc(C)nc(N)n1,.,-1.3
O=C(On1c(-c2ccccc2)nc2ccccc2c1=O)c1ccco1,.,4.4
Cc1ccc(/C=C/C(=O)OCC(=O)/C=C2\N(C)c3ccccc3C2(C)C)o1,-16,.
O=C(NCc1ccccc1)C1CCCN(c2cnccn2)C1 (stereo unspecified),-32,.
N#CCCC(C#N)(CCC#N)C(N)=O,.,1.3
C=CCn1c(CNC(=O)c2ccc(OC)cc2)nnc1SCc1nc2ccccc2c(=O)[nH]1,-13,0.0
O=C(O)c1ccccc1SCC(=O)N1CCc2ccccc21,1,.
O=C1C2C(C(=O)N1C1CCCCC1)C1C=CC2C12CC2 (stereo unspecified),5,1.3
COc1ccc(CNS(=O)(=O)c2ccc3c(c2)CCN3C(=O)C2CC2)cc1,-16,.
CC1CCc2onc(C(=O)N3CCCc4ccccc43)c2C1 (stereo unspecified),23,.
CS(=O)(=O)N(CCc1ccccc1)CC(=O)O,7,-1.5
O=C(/C=C/c1cccs1)OCc1nc2ccccc2s1,-4,.
CCCCC(CC)c1nnc(N)s1 (stereo unspecified),14,1.8
O=C(NCC(c1ccco1)N1CCCCC1)c1ccc(S(=O)(=O)N2CCCC2)cc1 (stereo unspecified),2,.
CCC(=O)N1CCc2cc(Br)cc(S(=O)(=O)Nc3noc4ccccc34)c21,-20,.
CC(C)CN(CC(C)C)Cn1c(=O)oc2ccccc21,-14,-1.7
CCOc1ccc(-n2nnc(C(=O)NCCN3CCOCC3)c2C)cc1,-28,.
CSc1ccc(S(=O)(=O)NC(C)C)cc1,-4,-0.6
O=c1c2cnn(-c3ccc(Cl)cc3)c2ncn1Cc1ccc(Cl)cc1,10,-0.3
COC(=O)C1(S(=O)(=O)C2(C(=O)OC)CCCC2)CCCC1,-1,.
O=c1oc2ccccc2cc1Cl,-14,.
COc1ccc(C2Nc3ccccc3C(=O)N2c2cccc3ccccc23)cc1COc1ccc(Cl)cc1 (stereo unspecified),.,1.8
CC1=CCC(c2cnc(-c3ccccc3)c(C)c2)NC1c1ccccc1 (stereo unspecified),15,-0.3
# The list goes on:
SMILES,S aureus helic,MgrA-DNA mod
S=C(c1ccc(-c2ccccc2)o1)N1CCCCC1,9,17
Cn1c(=O)c2c(nc(NCc3ccc4c(c3)OCO4)n2Cc2ccc(Cl)cc2Cl)n(C)c1=O,.,-0.3
C=CCN(CC=C)C(=O)COc1ccccc1C(N)=O,10,.
O=C(NCC1CCCO1)c1ccc(COc2ccc(F)cc2)o1 (stereo unspecified),-11,.
Cc1[nH]n(C(N)=S)c(=O)c1C(c1cccc(Cl)c1Cl)C(C#N)C#N (stereo unspecified),17,6.6
COC(=O)/C=C1\SC(N)=NC1=O,-13,.
O=S(=O)(NCC(c1cccs1)N1CCc2ccccc2C1)c1ccccc1 (stereo unspecified),9,.
O=C(O)C1C2C=CC(C2)C1C(=O)NCc1ccccn1 (stereo unspecified),39,.
N#CC(C#N)=NNc1ccc2c(c1)OCCO2,21,.
O=C(NNC(=S)Nc1cccc(C(F)(F)F)c1)c1ccncc1,.,4.3
COc1ccc(N2CCc3c(C)c(C#N)c4nc5ccccc5n4c32)cc1,-50,1.5
CCc1ccccc1NC(=O)c1ccc(S(=O)(=O)N(C)C)cc1,-15,.
S=c1n(-c2ccccc2)cnn1CN1CCN(c2ccccn2)CC1,5,.
CCCN(CCC)C(=O)CC(c1ccccc1)C1CCOC(C)(C)C1 (stereo unspecified),-3,.
CC(C)C(C)(C#N)NC(=O)CN1CCOCC1 (stereo unspecified),-15,.
Cc1onc(-c2ccccc2Cl)c1NC(=O)OC(C)c1cccnc1 (stereo unspecified),.,-0.2
COCCN(CCc1ccncc1)S(=O)(=O)c1cc2[nH]c3c(c2cc1C)C(=O)CCC3,-15,.
Cc1ccc(C(=O)NC(=O)CSc2nnc(C)s2)cc1,10,-0.2
CCOc1ccc(NC(=O)C2(c3ccccc3)CCOCC2)cc1,9,0.0
CCCC1=Nc2cc(C(=O)NC)ccc2Sc2ccccc21,-10,0.6
CCOc1ccc(CCNC(=O)CC2Oc3ccccc3NC2=O)cc1 (stereo unspecified),9,.
CC(NCc1nc2ccccc2n1C)C12CC3CC(CC(C3)C1)C2 (stereo unspecified),-6,1.6
CC1(C)N=C(NC(=O)NC(=O)c2ccccc2Cl)N(c2ccccc2)O1,.,-3.5
Cn1/c(=N/N=C2\C(=O)Nc3ccc(F)cc32)sc2ccccc21,-54,.
Cc1noc(N2C(=O)C3C4C=CC(C4)C3C2=O)c1C (stereo unspecified),.,1.3

# Whole records as entered above.
# Shown for CCOc1ccc(-n2nnc(C(=O)NCCN3CCOCC3)c2C)cc1 → S aureus helic = -28; MgrA-DNA mod = .
# Shown for CCCN(CCC)C(=O)CC(c1ccccc1)C1CCOC(C)(C)C1 (stereo unspecified) → S aureus helic = -3; MgrA-DNA mod = .

# Further results follow.
SMILES,S aureus helic,MgrA-DNA mod
CCOC(=O)c1[nH]c(C)c(C(=O)N2CCN(c3ccccc3)CC2)c1CC,15,.
O=C(Nc1ccccc1)N(Cc1ccco1)C1CCS(=O)(=O)C1 (stereo unspecified),5,5.3
CN(C)c1ccc(CNCc2ccccc2)cc1,6,-2.5
S=c1nc[nH]c2c1nnn2Cc1ccccc1,.,0.8
CC(C)(C)c1cc(C(=O)NCc2cccs2)cc(C(=O)NCc2cccs2)c1,.,-0.1
NC(=S)NNC(=O)c1ccccc1Cl,.,0.2
CC1CCN(C(=O)C2C3C=CC(C3)C2C(=O)O)CC1 (stereo unspecified),-10,5.9
COc1cccc(CN(C)C(=O)c2ccccc2Cl)c1OC,-10,.
Cc1cc(C)c(S(=O)(=O)N2CCSC2)cc1C,18,.
COc1cc(C=C2C(=O)NC(=O)NC2=O)ccc1OCc1ccccc1[N+](=O)[O-],.,5.9
COc1cccc(N2C(=O)CC(N3CCC(C(N)=O)(N4CCCCC4)CC3)C2=O)c1 (stereo unspecified),11,-1.2
CCC(C)NC(=O)CN1CCN(Cc2ccc(Cl)cc2)C1=O (stereo unspecified),7,-1.1
O=C(CN1CCc2ccccc21)Nc1nnc(-c2cccs2)s1,.,-0.2
O=C(/C(=N/O)c1nc2ccccc2s1)c1ccco1,.,3.8
Cn1/c(=N/N=C(\CCC(=O)O)c2cccs2)sc2ccccc21,-16,.
Cc1c(O)ccc(-c2[nH]ncc2-c2nc3ccccc3s2)c1O,5,1.4
CC(c1ccccc1)n1cnc2c(cnn2-c2ccc(F)cc2)c1=O (stereo unspecified),1,.
CNC(=O)NC(=O)C(C)N1CCN(C/C=C/c2ccccc2)CC1 (stereo unspecified),-12,.
CCCN1C(=O)C(O)(C2COC(C)(C)CC2=O)c2cc(C)ccc21 (stereo unspecified),3,0.0
Cc1ccc(-n2nnc(C(=O)NC(C)C)c2C)cc1,-1,.
CN(C(=O)CSc1cc(Cl)ccc1Cl)c1ccc(F)cc1F,.,0.4
CCOC(=O)Cn1c(O)c(N=NC(=O)c2cccc(F)c2)c2ccccc21,10,0.2
CCOC(=O)c1c(C)n(C)c2c1cc(OC(=O)COc1ccccc1C)c1ccccc12,.,-2.6
CC(NC(=O)Cc1ccccc1)C(=O)O (stereo unspecified),-17,.
O=C(CC1=NS(=O)(=O)c2ccccc2N1)NC1CCCC1,-13,.
CC(=O)Nc1cccc(F)c1C(=O)O,.,-10

# These rows are one share of the data; count on the stated rates, not on these rows.
